Biofilm kill mix: mixture kills Candida albicans biofilm cells. 0.02% of 120,000 active. inhibition, % at 7.6 µM. C. albicans biofilm persisters + clotrimazole, fluorescence viability; primary screen in compound mixtures of four per well;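 active = inhibition above 30.3% in the primary screen of four-compound pools, then above 30% when the compound was retested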;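 also: compounds exposed to preformed 24 h biofilms for 48 h; the number belongs to the whole pool; some results filed as inactive read as strong as hits; inactives centre near 12; 0% = biofilm with clotrimazole alone and 100% = kill control; retested singly at about 60 µM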
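Incubation: 24 h biofilm formation, then 48 h compound exposure, 37 °C | Material: C. albicans biofilms | Buffer or medium: RPMI/MOPS medium, pH 7.0 | Measured by: 2-h Alamar Blue fluorescence, 535/590 nm excitation/emission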
* hit, by the source's call. Not all compounds are listed; count on the stated rates, not on these rows.

SMILES	Biofilm kill mix
CC(=O)COC(=O)c1cc(-c2ccc(C)cc2)nc2ccccc12	9
C=CCN1C2=NCCCN2c2ccccc21	22
CCOC(=O)/C(=C\c1cn(C)c2ccccc12)[N+](=O)[O-]	21
S=C(NCc1cccs1)Nc1cc(Cl)cc(Cl)c1	23
O=C(CN(Cc1cccs1)C(=O)CNS(=O)(=O)c1ccc(F)cc1)NCC1CCCO1 (stereo not given)	8
Cc1ccccc1S(=O)(=O)Nc1nc2ccccc2nc1Cl	7
COc1ccc(NC(=O)C(Sc2nnc3ccccn23)c2ccccc2)cc1Cl (stereo not given)	3
CN(CCN(C)C(C)(C)C)C(=O)C(c1ccccc1)c1ccccc1	10
COc1ccc(C(=O)Oc2ccc(/C=N/NC(=O)Cc3ccc([N+](=O)[O-])cc3)cc2)cc1	-14
O=C(NCCN1C(=O)S/C(=C\c2ccc(F)cc2)C1=O)c1cccc(S(=O)(=O)N2CCOCC2)c1	6
CN(C)CCn1c(=S)[nH]c2ncccc2c1=O	7
Cc1cc2c3c(c1C)C(=O)C(=O)N3C(C)(C)CC2C (stereo not given)	10
Nn1c(SCc2ccc(F)cc2)nnc1-c1ccncc1	24
O=C(NCc1cccs1)C12CC3CC(CC(C3)C1)C2	9
CCN1CNC(=S)N(c2ccccc2C)C1	13
CCCC(c1nnnn1CC1CCCO1)N1CCN(c2nc3ccccc3s2)CC1 (stereo not given)	15
COc1nc(Nc2nc3ccccc3c(=O)[nH]2)nc2ccc(C)cc12	25
O=C(CCCN1C(=O)c2cccnc2C1=O)Nc1ccc(Br)cc1	-1
CC1CCN(CCC(=O)Nc2ccc3c(c2)CCC3)CC1	7
O=c1[nH]c(=O)c2nnc(N/N=C/c3ccccc3F)nc2[nH]1	20
O=C(c1ccc(Cl)c(S(=O)(=O)N2CCCCCC2)c1)N1CCN(c2ccccc2O)CC1	-3
CC(=O)N=Nc1[nH]c(N)c2ccccc12	16
COC(=O)C1(Cc2ccc(O)c(CC3OC3(C)C)c2)OC(=O)C(O)=C1c1ccc(O)cc1 (stereo not given)	17
COC(=O)C1=C(C)NC(C)=C(C(=O)OC)C1C(=O)OCC(=O)c1ccc(F)cc1	15
Cc1ccc(-n2cc(CNCCN3CCOC3=O)c(-c3ccc(F)cc3)n2)cc1	14

Additional records
SMILES	Biofilm kill mix
CCOc1cc(/C=C/C(=O)c2ccc(C)cc2)ccc1OCC(=O)N(C)C	7
CC(=O)Nc1ccc(OCC(O)CN2CCCCC2C)cc1 (stereo not given)	8
COc1ccc(-c2nnc(SCC(=O)N/N=C/c3ccccc3C(=O)O)n2-c2ccccc2)cc1	17
COc1ccc(Cl)cc1NC(=O)Nc1ccccc1C(N)=O	6
Cc1cccc(CN2C[C@]34CC[C@@H](C[C@@H]3S2(=O)=O)O4)c1	20
COc1ccc(O)c(/C=C(\C#N)C(=O)Nc2cccnc2)c1	21
Oc1c(Br)cc(Cl)cc1C=Nc1ccccc1Br	7
COCC1CCCN(C(=O)c2ccc(OC3CCN(Cc4ccccn4)CC3)cc2)C1 (stereo not given)	35
CC1C(c2ccccc2)=NNc2nc3c(c(=O)n(C)c(=O)n3C)n21 (stereo not given)	7
CC(C)(C)NC(=O)C(c1ccc(O)cc1)N(C(=O)Cn1nnc(-c2ccc(F)cc2)n1)c1ccccc1F (stereo not given)	7
OC1CCCN(c2c3c(nc4cc(-c5cccc(F)c5)nn24)CCCC3)C1 (stereo not given)	12
CN1C(=O)C(O)(CC(=O)c2cccs2)c2ccccc21 (stereo not given)	14
O=C(NCc1cccnc1)C(=O)Nc1nc(C23CC4CC(CC(C4)C2)C3)cs1	21
CCN(CC(=O)Nc1ccccc1OC)CC(=O)Nc1sccc1C#N	17
O=C(CN1C(=O)NC2(CCCC2)C1=O)OCc1cc(=O)n2cc(Br)ccc2n1	15
Cc1ccc(C(=O)N2CCN(S(=O)(=O)c3ccccc3[N+](=O)[O-])CC2)o1	10
COCCn1c(SCc2nc3scc(-c4ccc(Cl)cc4)c3c(=O)[nH]2)nnc1-c1cccc(C)c1	18
C=CCn1cnc2c(sc3nc(C)cc(C)c32)c1=O	26
Cc1nc(N2CCN(S(=O)(=O)c3ccc(F)cc3)CC2)c2c(-c3cccs3)csc2n1	-3
CCN1CCCC1CN(Cc1cc2ccc(C)cc2[nH]c1=O)C(=S)Nc1ccccc1C(=O)OC (stereo not given)	29
CCSC1=N/C(=C\c2ccccc2)C(=O)N1	11
CCOC(=O)c1ccc(NC(=O)CSc2nnnn2C2CCCCC2)cc1	7
CCN(CC)Cc1c(O)ccc2c([N+](=O)[O-])c(C)n(-c3ccc(OC)cc3)c12	10
COCCNC(=O)NC(=O)COC(=O)C1(c2ccc(Cl)cc2)CC1	3
NC(=S)N=Nc1c(O)n(CCCl)c2ccccc12	7

(listing goes on)
SMILES	Biofilm kill mix
O=C(Nc1nc2nccc(-c3ccccc3)n2n1)c1ccccc1	12
COc1ccc(C2=C/C(=C\c3ccc(OC(C)=O)cc3)C(=O)O2)cc1	7
CC(=O)c1nn(-c2cccc(Br)c2)cc1C(=O)c1ccc(Cl)cc1	14
CCOC(=O)c1c(C(=O)OCC)c(C)n(CCc2ccccc2)c1C	11
O=C(O)c1cccnc1SCC(=O)N1CCCc2ccccc21	4
COc1cccc(N=C2SC(CC(=O)Nc3ccccc3)C(=O)N2Cc2ccccn2)c1 (stereo not given)	8
CC1CN(C2=NC(=O)/C(=C3/C(=O)N(Cc4ccc(F)cc4)c4ccccc43)S2)CC(C)O1 (stereo not given)	24
CN(CC(=O)NCCc1ccccc1)S(=O)(=O)c1cccc2nsnc12	21
CN1N=C(C(=O)Nc2ccc3c(c2)CCC3)CCC1=O	6
CC(C)n1c(/C=C/c2ccccc2)nc2ccccc21	15
Cc1ccccc1CC1(CO)CCCN(C(=O)CCCN2CCCCC2=O)C1 (stereo not given)	5
COc1ccc(NC(=O)CN(C)Cc2c(F)cccc2Cl)cc1S(=O)(=O)N1CCCCC1	9
COc1cc(/C=C(\C#N)C(=O)NC2CCCCC2)ccc1OCc1ccc(C(=O)O)cc1	10
CCC1=C(OC(=O)N(CC)CC)N2C(=O)OC(=NCc3ccccc3)[C@]2(C)[C@H]2C1=CC[C@H]1C(=O)N(c3ccccc3)C(=O)[C@H]12	13
CSc1cccc(NC(=O)CCCOc2ccccc2)c1	15
O=C(CCl)N(c1ccccc1)C1CCS(=O)(=O)C1 (stereo not given)	13
COc1ccc(Br)c(OC)c1C(=O)NC(=O)Nc1nc(C)cc(C)n1	16
COc1ccccc1NS(=O)(=O)c1cc(NC(=O)c2ccc(=O)[nH]c2)ccc1N1CCOCC1	13
CCOC(=O)C(c1ccccc1)C(Nc1ccc(F)cc1)c1ccccn1 (stereo not given)	19
Cc1ccc(S(=O)(=O)NC(=S)NC2CCCCC2)cc1	13
COc1ccc([N+](=O)[O-])cc1NC(=O)C(C)OC(=O)/C=C/c1ccco1 (stereo not given)	14
C=CCc1cc(OC)ccc1OCCOCCN1CCc2ccccc2C1	12
CSCCC(NC(=O)c1ccccc1)C(=O)N/N=C(\C)c1ccccc1 (stereo not given)	12
Fc1ccc2c(c1)C(c1ccncc1)=NNC(c1ccc(Br)cc1)=N2	13
CCOC(=O)/C(C#N)=C/Nc1ccccc1NS(=O)(=O)c1ccc(C)c(C)c1	26

The list continues.
SMILES	Biofilm kill mix
Cc1ccc2c(c1)c1ccc3c(c1n2C)C(=O)C=CC3=O	23
NC(=O)c1ccc(NC(=O)c2cccc3c2OCCCO3)cc1	15
COc1ccc(C2C3=C(CCCC3=O)Nc3ccc4ncccc4c32)cc1OC (stereo not given)	20
COc1cc2ccccc2cc1C(=O)NC(=S)Nc1cccc(C(=O)O)c1C	17
COc1ccc(C2=NNC(c3cccnc3)=Nc3ccccc32)cc1	26
O=C(NN1C(=O)c2ccccc2C1=O)C1C2CCCCC21 (stereo not given)	22
Cc1ccc(-c2ccc3nnc(SCC(=O)NCC4CCCO4)n3n2)cc1 (stereo not given)	14
CC1=CC(C)(C(Cl)Cl)C(C)=CC1=O (stereo not given)	12
O=c1cc(O)c2sc(Nc3ccc(F)c(Cl)c3)nc2[nH]1	11
Cc1ccc2nc(SC(C(=O)Nc3ccc(F)cc3)c3ccccc3)[nH]c2c1 (stereo not given)	14
Cc1ccc(CNC(=O)CN(C2CCCCC2)S(C)(=O)=O)cc1	13
CC(C)(C)n1nnnc1C(c1cccc(C(F)(F)F)c1)N1CCC(O)CC1 (stereo not given)	8
CCc1nc(N=Nc2c(O)[nH]c3ccccc23)c2c3c(sc2n1)CCC3	7
O=C(CCC(=O)N1CCN(c2ccc(F)cc2)CC1)c1ccc(F)cc1	7
Cc1cc(C)n2nc(SCc3ccccc3)nc2n1	6
COc1ccc(CN2CCCC(C(=O)c3ccc(Cl)cc3)C2)cc1Cn1cncn1 (stereo not given)	23
CCOC(=O)C1=C(C)NC(=S)N(C(C)=O)C1c1ccc(Cl)cc1 (stereo not given)	7
O=Cc1cn(-c2ccccc2)nc1-c1cccnc1	14
Cc1cccc(NC(=S)NC2CC3CCCC(C2)N3CC(C)C)c1C (stereo not given)	6
O=C(NNC(=S)NC1CCCCC1)c1cccs1	13
COCCN(C(=S)Nc1ccc(OC)c(Cl)c1)C1CCN(C(C)C)CC1	26
COc1ccc2nc(Nc3nc(-c4cc5ccccc5oc4=O)cs3)sc2c1	12
CCC1=C(OC(=O)N(CC)CC)N2C(=O)OC(=NCC3CC3)[C@]2(Cc2ccccc2)[C@H]2C1=CC[C@H]1C(=O)N(CC(=O)OC)C(=O)[C@H]12	21
CC(OC(=O)C1CC1)C(=O)Nc1cc(C(F)(F)F)ccc1Cl (stereo not given)	5
C=CCOC(=O)C1=C[C@@H](c2ccc(Br)cc2)[C@H](CCCO)[C@@H](OCC)O1	15

The list goes on.
SMILES	Biofilm kill mix
COc1ccc(C(=O)N2CCN(Cc3cn[nH]c3-c3ccc(OC)cc3F)CC2)cc1	15
CCOC(=O)c1c(-c2ccccc2)csc1NC(=O)CSc1ccccc1	3
CN1C(C(=O)NCc2cccc(C(F)(F)F)c2)CC2Cn3c(nc4ccccc43)C21 (stereo not given)	16
CN(CC(=O)Nc1ccc(S(=O)(=O)N2CCCC2)cc1)Cc1cccc(Cl)c1Cl	5
COC(=O)c1[nH]c2ccccc2c1NC(=O)c1ccccc1[N+](=O)[O-]	14
CCOc1ccc(NC(=O)c2c3c(nc4ccccc24)CCC3)cc1	25
COCCNc1nc(N)c([N+](=O)[O-])c(NCCO)n1	14
CCOC(=O)N1CCN(C(=O)Cn2ccc3c(OC)cccc3c2=O)CC1	15
O=C(CCNC(=O)c1ccccc1Cl)Nc1nc(-c2ccc(F)cc2)cs1	4
c1ccc2nc(-c3nccs3)ccc2c1	18
O=C(NCc1ccco1)C(=S)N1CCCCC1	5
O=C(Nc1ccc(F)cc1F)N1CCCN(c2ccc([N+](=O)[O-])cn2)CC1	20
O=C(c1cccc2ccccc12)N1CCN(c2ccc([N+](=O)[O-])c(NCc3ccco3)c2)CC1	7
CCCCC(=O)NC(=S)Nc1ccc(S(=O)(=O)N2CCCC2)cc1	13
O=C(CCCC(=O)NC1CCCC1)NC1CCCC1	12
O=C(Nc1ccc2oc(-c3ccncc3)nc2c1)c1ccc2c(c1)OCO2	26
CSCCC(NC(=O)COc1ccccc1)C(=O)O (stereo not given)	15
CN(C)c1cccc2c1c(NC(=O)c1ccc(F)cc1)nn2C	21
Cc1cc(OCCN2CCCCCC2)ccc1[N+](=O)[O-]	18
CCC(CCC(=O)NNC(=O)Cc1ccc([N+](=O)[O-])cc1)C(=O)O (stereo not given)	29
COc1ccc(-c2[nH]ncc2CNCCCSC)cc1F	5
CN(C)/C=C/C(=O)c1nn(-c2ccc(F)cc2)ccc1=O	21
CCCC(C)C(=O)OCC(=O)Nc1c(Br)cc(C)cc1Br (stereo not given)	19
CCOC(=O)Cc1csc(NC(=O)CCC(=O)O)n1	12
COc1ccc(-n2c(SCC3CNC(=O)O3)nnc2-c2ccc(Cl)cc2)cc1 (stereo not given)	9

Going on with the list.
SMILES	Biofilm kill mix
O=C(c1cccc(C(F)(F)F)c1)c1c[nH]c(C(=O)NCC2CCCO2)c1 (stereo not given)	13
O=C(NNS(=O)(=O)c1ccc(Br)cc1)NC1CCCCC1	-11
COCc1cc(C)nc(N2CCN(c3ccccc3)CC2)c1C#N	-6
CC(C)NCc1nnc(-c2ccc(Cl)cc2)o1	17
CC(C)C(=O)Nc1cccnc1	12
N#Cc1c(NC(=O)CCC(=O)O)sc2c1CCCCC2	11

In the list so far, these have a CF3 group.
SMILES	Biofilm kill mix
CC(C)(C)n1nnnc1C(c1cccc(C(F)(F)F)c1)N1CCC(O)CC1 (stereo not given)	8
CC(OC(=O)C1CC1)C(=O)Nc1cc(C(F)(F)F)ccc1Cl (stereo not given)	5
CN1C(C(=O)NCc2cccc(C(F)(F)F)c2)CC2Cn3c(nc4ccccc43)C21 (stereo not given)	16
O=C(c1cccc(C(F)(F)F)c1)c1c[nH]c(C(=O)NCC2CCCO2)c1 (stereo not given)	13

Compounds above that contain bromine, in the order listed:
SMILES	Biofilm kill mix
O=C(CCCN1C(=O)c2cccnc2C1=O)Nc1ccc(Br)cc1	-1
Oc1c(Br)cc(Cl)cc1C=Nc1ccccc1Br	7
O=C(CN1C(=O)NC2(CCCC2)C1=O)OCc1cc(=O)n2cc(Br)ccc2n1	15
CC(=O)c1nn(-c2cccc(Br)c2)cc1C(=O)c1ccc(Cl)cc1	14
COc1ccc(Br)c(OC)c1C(=O)NC(=O)Nc1nc(C)cc(C)n1	16
Fc1ccc2c(c1)C(c1ccncc1)=NNC(c1ccc(Br)cc1)=N2	13
C=CCOC(=O)C1=C[C@@H](c2ccc(Br)cc2)[C@H](CCCO)[C@@H](OCC)O1	15
CCCC(C)C(=O)OCC(=O)Nc1c(Br)cc(C)cc1Br (stereo not given)	19
O=C(NNS(=O)(=O)c1ccc(Br)cc1)NC1CCCCC1	-11

Screening results as filed in PubChem BioAssay.
